# Screening results deposited in PubChem BioAssay by several laboratories.
# Mtb H37Rv – M. tuberculosis H37Rv growth inhibitors, H37Rv strain (AID 1626). M. tuberculosis H37Rv growth inhibition; higher % means a stronger effect. one-dose inhibition, % at 10 µM; IC50 in µM for titrated hits. 0.95% of 220,000 active;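 active = confirmed in a dose series; inconclusive = inhibition above 80% but not taken into the dose series; inactive = below 80% or under 30% at every dose of the series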;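 also: bacteria incubated seven days before Alamar blue readout; 0% = bacteria only wells and 100% = bacteria with antibiotic wells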
# RecA splice inh – Mtb RecA intein splicing inhibitors, primary screen, biochemical, fluorescence, HTS; Protein RecA (Mycobacterium tuberculosis (strain ATCC 25618 / H37Rv)), P9WHJ3; cell-free RecA intein splicing; inhibition, %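 (about 9 µM by stock and volumes)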; 0.75% of 290,000 active; AID 2221, 2009; in the data active = inhibition above about 30%; inconclusive = no clear call, values can overlap the other calls;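 also: 0% = vehicle wells and 100% = reference inhibitor control wells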
# Target sequence (P9WHJ3 whole entry, looked up, canonical isoform): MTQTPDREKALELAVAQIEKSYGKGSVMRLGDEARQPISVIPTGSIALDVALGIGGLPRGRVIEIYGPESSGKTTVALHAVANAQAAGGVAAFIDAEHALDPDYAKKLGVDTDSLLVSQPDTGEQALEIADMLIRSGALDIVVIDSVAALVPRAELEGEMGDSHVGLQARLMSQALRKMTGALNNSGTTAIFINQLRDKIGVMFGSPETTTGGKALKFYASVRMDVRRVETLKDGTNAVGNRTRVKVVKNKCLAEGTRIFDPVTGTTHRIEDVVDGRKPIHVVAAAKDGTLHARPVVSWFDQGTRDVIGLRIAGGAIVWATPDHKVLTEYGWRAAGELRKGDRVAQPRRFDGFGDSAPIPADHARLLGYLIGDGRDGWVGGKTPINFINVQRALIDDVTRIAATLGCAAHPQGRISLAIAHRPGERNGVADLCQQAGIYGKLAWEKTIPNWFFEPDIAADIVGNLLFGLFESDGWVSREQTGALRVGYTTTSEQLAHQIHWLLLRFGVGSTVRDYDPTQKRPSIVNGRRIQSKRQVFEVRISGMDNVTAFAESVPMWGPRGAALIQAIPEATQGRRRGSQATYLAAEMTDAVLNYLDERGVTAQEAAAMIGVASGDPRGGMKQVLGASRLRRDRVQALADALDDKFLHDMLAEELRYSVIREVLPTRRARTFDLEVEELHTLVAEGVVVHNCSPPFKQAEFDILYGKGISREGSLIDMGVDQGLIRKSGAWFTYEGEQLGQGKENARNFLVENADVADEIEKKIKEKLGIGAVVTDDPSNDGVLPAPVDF
# Mtb bLac sens – beta-lactam sensitization of Mtb H37Rv, H37Rv; AID 434955, 2010; 0.27% of 330,000 active; M. tuberculosis H37Rv growth with meropenem, percent inhibition; hits of this screen are not shown here; inhibition, % at 25 µM;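 active = about 74% or more and at least 40 points above the plate without the antibiotic, then above 30% in a dose series; inconclusive = first-round hits that could not be retested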;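 also: growth measured after seven days incubation then overnight dye step; 0% = bacteria only wells and 100% = bacteria with antibiotic; twin plates without the antibiotic show which effects depend on it; some results filed as inactive read as strong as hits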
# Arbovirus inh – antivirals against arbovirus infection, primary screen, cell-based, full library, 10K replicate subset; AID 1251, 2008; 0.37% of 200,000 active; arbovirus infection cell-based antiviral screen; inhibition, % at 10 µM;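 active = inhibition from about 30%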;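 also: bluetongue infection of BSR cells; cell survival read as ATP light after 72 h; 0% = infected wells without compound and 100% = uninfected wells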
# YopH inh – YopH tyrosine phosphatase inhibitors, primary screen, biochemical, fluorescence Ex485/Em525; 0.16% of 140,000 active; AID 898, 2007; inhibition, %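 (about 10 µM by stock and volumes)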; YopH tyrosine phosphatase [Yersinia enterocolitica];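 active = inhibition of 50% or more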;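 also: controls were vehicle for no effect and minimum signal wells for full effect; inactives centre near -20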
# Arbovirus inh repeat – second read-out of Arbovirus inh, no call of its own (marks repeat the call); inhibition, %; measured here: 10K subset replicate screen; many hits read low in the repeat;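 first of two repeat runs on a subset; 0% = infected and 100% = uninfected wells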
# * hit, by the source's call; ? = inconclusive; nt = no result given. These rows are one share of the data. The share of hits here may be higher or lower than overall.
SMILES,Mtb H37Rv,RecA splice inh,Mtb bLac sens,Arbovirus inh,YopH inh,others
CC(=O)c1cc(CC(=O)N2CCc3c([nH]c4ccccc34)C2c2ccccn2)cs1 (centres undefined),-14%,1.4,-9,12,nt,
COc1ccc(C2=C(Nc3ccc(C)cc3)c3ccccc3C2=O)cc1,11%,1.4,14,2,-21,
CCCCc1ccccc1NC(=S)NC1CCCC1,nt,0.4,2,nt,nt,
COC(=O)C1=C(C(=O)OC)[C@@H]2N(C)c3ccccc3[C@@]23C[C@@H](C(=O)OC)N(C(=O)c2ccc(Br)cc2)C3=N1,-6%,6.9,-8,nt,nt,
O=C(NCC(=O)N1CCCC1)c1ccc(Br)cc1,nt,-0.1,4,nt,nt,
Cc1c(CC(=O)NC(C)C)c(=O)oc2cc3c(cc12)CCC(C)(C)O3,nt,1.3,-1,nt,nt,
CCOC(=O)c1[nH]c(C)c(/C(O)=C2\C(=O)C(=O)N(CCCn3ccnc3)C2c2ccncc2)c1C (centres undefined),2%,-9.9,4,-4,-66,
COc1cccc(NC(=O)c2cc(Cl)nnc2Cl)c1,-6%,3.4,-10,4,nt,
CCOC(=O)N1CCC(N2CCCC(C(=O)c3ccccc3OC)C2)CC1 (centres undefined),8%,-1.1,2,1,nt,
COc1cccc(C(=O)NC2CCN(CC(=O)Nc3cccc(C)c3C)CC2)c1,5%,1.9,-8,-5,nt,
COc1cccc2cc(C(=O)NCc3ccccc3)c(=N)oc12,nt,-6.8,8,nt,nt,
O=C(Cc1ccccc1)NNC1=NS(=O)(=O)c2ccccc21,-10%,-0.4,1,-1,nt,
CCCCOc1ccc(S(=O)(=O)N2CCCCCC2)cc1,4%,5.5,-1,-6,2,
CCCCC(=O)Nc1cccc(-c2ccc3nncn3n2)c1,nt,3.2,-2,nt,nt,
O=c1cc(C(F)(F)F)[nH]c2c(OC(F)(F)F)cccc12,-1%,0.6,-7,nt,nt,
O=C(c1cnc2sccn2c1=O)N1CCN(c2ccccc2Cl)CC1,nt,-1.5,-1,nt,nt,
CCOP(=O)(OCC)C(Nc1cccc(C(F)(F)F)c1)c1ccc(C)cc1 (centres undefined),3%,-2.8,5,13,-5,
O=C(CSc1nncc(=O)[nH]1)NC1CCCCC1,nt,-2.5,-2,nt,nt,
COc1ccccc1/C=C1\C(=O)Nc2ccccc21,nt,1.2,2,nt,nt,
O=C1CCSc2ccc(Cl)cc2N1Cc1ccccc1,2%,-0.3,1,-3,-35,
COc1cc(C=O)c(Br)cc1OC1CCCC1,-1%,3.1,5,1,-5,
O=C(O)C1CC(=O)N(c2ccc(OCc3c(F)cccc3Cl)cc2)C1 (centres undefined),12%,0.5,91,5,4,
COc1cc(N(C)C)c([N+](=O)[O-])cc1C(=O)N1CCN(Cc2ccccc2)CC1,3%,-0.8,-12,4,nt,
CCOC(=O)c1sc(=S)n(-c2ccccc2OC)c1N,7%,-4.7,-5,-2,-22,
O=C(NNC(=S)NCc1ccccc1)c1ccc(OC(F)F)cc1,0%,2.1,0,9,-13,

# Additional results follow.
SMILES,Mtb H37Rv,RecA splice inh,Mtb bLac sens,Arbovirus inh,YopH inh,others
COC(=O)[C@]1(Cc2ccccc2)N[C@H](c2ccc(-c3ccc(OC)cc3)cc2)[C@@H]2C(=O)N(C)C(=O)[C@@H]21,nt,0.9,3,nt,nt,
Cc1ccc(OCCN2C(=O)NC3(CCc4ccccc4C3)C2=O)cc1 (centres undefined),-3%,-0.4,6,10,-20,
Cc1c(NC(=O)C(C)OC(=O)c2cccnc2)c(=O)n(-c2ccccc2)n1C (centres undefined),3%,-2.0,0,2,-28,
COC(=O)c1cnc(Oc2ccc(NC(=O)NC(=O)c3c(F)cccc3F)cc2)cc1C(F)(F)F,-6%,0.4,2,nt,nt,
COC(=O)c1cc(NC(=O)c2cc(-c3ccc(OC)cc3)oc2C(F)(F)F)ccc1N1CCOCC1,14%,2.8,20,nt,nt,
CCCCc1cc(=O)oc2cc(OCC(=O)Nc3ccccn3)ccc12,nt,-6.2,47,nt,nt,
Cc1nnc(NC(=O)c2ccccc2Br)s1,2%,-0.2,-5,12,-47,
COC(=O)c1ccccc1NC(=O)Nc1ncccc1C,-3%,0.3,-1,12,nt,
Cc1nc2ccccn2c1/C(O)=C1\C(=O)C(=O)N(CCCn2ccnc2)C1c1ccncc1 (centres undefined),-1%,-0.1,-8,7,-8,
COc1ccccc1/C=C/C(=O)NCC(=O)N1CCC(N(C)C2CCCC2)CC1,5%,0.5,-7,-1,nt,
C#CCNc1cc(-c2ccccc2)nc2ncnn12,3%,-2.1,9,-10,nt,
CN(C)C(=O)c1c(NC(=O)c2ccccc2)sc2c1CCC2,nt,-0.3,-4,nt,nt,
CC(C)(C)n1nnnc1C(c1cccs1)N1CCCc2ccccc21 (centres undefined),-7%,6.9,-19,-3,-7,
CCN(C(=O)c1ccc2c(=O)n3c(nc2c1)CCCCC3)c1ccccc1C,nt,0.5,8,nt,nt,
CCOC(=O)c1sc2nc(CC(=O)OC)nc(NCC(=O)OC)c2c1C,-4%,-4.7,6,5,-42,
CCOC(=O)c1nn(-c2ccccc2)c(=O)cc1OCC(=O)Nc1cc(C)ccc1OC,nt,-1.2,-10,nt,nt,
Cc1sc2nc(C(C)C)nc(SCC(=O)N3CCOCC3)c2c1C,nt,0.9,12,nt,nt,
CCOC(=O)Cc1csc(NC(=O)/C=C\c2ccccc2Cl)n1,16%,1.8,-4,7,nt,
CCOc1cc(CNc2ccc(S(N)(=O)=O)cc2)cc(Cl)c1OC,0%,1.7,0,-1,-25,
CSCC[C@H](NC(=O)OC(C)(C)C)C(=O)N/N=C/c1cc2ccc(C)cc2nc1Cl,18%,5.5,41,-7,-19,
Cn1c(=O)n(C)c2cc(/C=N/NC(=O)c3ccc(Cl)cc3Cl)ccc21,-12%,1.4,-12,-13,-17,
C=CCn1c(-c2csc3c2CCC(C)C3)n[nH]c1=S (centres undefined),10%,1.1,-3,-1,-23,
COC(=O)c1ccccc1NC(=O)c1ccc(COc2cc(C)cc(C)c2)o1,-9%,11,-5,22,-26,
COc1ccccc1N(C)S(=O)(=O)c1ccc(C(=O)OCC(=O)N(C)c2ccccc2)cc1,5%,2.3,36,8,nt,
Cc1ccc(NC(=O)CCC(=O)OCC(=O)c2ccc(Oc3ccc([N+](=O)[O-])cc3)cc2)cc1C,nt,-1.4,1,5,-35,

# Remaining list, next part:
SMILES,Mtb H37Rv,RecA splice inh,Mtb bLac sens,Arbovirus inh,YopH inh,others
Cc1cc(C)nc(NS(=O)(=O)c2ccc(NC(=O)c3cc4c(=O)n5cccc(C)c5nc4n3C)cc2)n1,nt,-7.5,3,nt,nt,
Cc1ccc(NC(N)=S)cc1C,-11%,-1.7,17,-6,-29,
CC1=NN(c2ccccc2)C(=O)/C1=C/c1cccs1,0%,85*,-10,-1,-10,
O=C(COc1ncnc2sccc12)Nc1cccc(S(=O)(=O)N2CCCC2)c1,-3%,2.3,-4,nt,nt,
COc1ccccc1OCCCCN1CCCCC1,nt,1.5,1,nt,nt,
CC(C)(C)NCCOc1ccc2ccccc2c1,10%,0.6,4,-8,nt,
CCOP(=O)(OCC)C1NC(=O)N(c2ccccc2)C1=O (centres undefined),nt,-2.4,0,nt,nt,
CCNC(=S)Nn1cnc2ccccc21,2%,-19,-2,nt,nt,
COc1cc(/C=N/NC(=O)CSCc2ccc([N+](=O)[O-])cc2)cc(OC)c1OC,-4%,nt,?,5,-1,
Brc1ccc(/C=N/Nc2nc3ccccc3o2)cc1,nt,1.4,18,nt,nt,
Nc1nonc1-n1nnc(C(=O)N/N=C/c2ccncc2)c1CSc1ccc(Cl)cc1,nt,-1.5,1,nt,nt,
O=C(Nc1cc(Cl)ccc1Oc1ccccc1)C1=COCCO1,nt,18,5,nt,nt,
O=C(CN1CCN(Cc2ccccc2)CC1)Nc1ccc(F)c(F)c1,nt,-0.8,-1,nt,nt,
COc1ccc(O)c(/C=N/Nc2nc(C)cc(-c3ccccc3)n2)c1,nt,1.5,99,nt,nt,
O=C(N/C(=C/c1ccc([N+](=O)[O-])cc1)C(=O)N1CCCC1)c1ccccc1,nt,-0.3,-4,nt,nt,
Cc1c(OCC(=O)NCCCN2CCCC2=O)ccc2c3c(c(=O)oc12)CCCC3,nt,-1.3,-4,nt,nt,
Cc1ccc(NC2=C(Cl)C(=O)OC2OC(=O)c2ccc(C)cc2)cc1 (centres undefined),4%,16,58,-2,nt,
CC(C)NC(=O)c1nc2ccccc2s1,-4%,17,-2,-3,-31,
CCOC(=O)C1=C(CC)OC(N)=C(C#N)C1c1ccsc1 (centres undefined),6%,-2.0,-6,0,-22,
O=C(NCc1cnn(-c2ccccc2)c1)C1CCC(=O)N(C2CC2)C1 (centres undefined),nt,-1.1,-9,nt,nt,
O=C(Cn1ncc2c3ccccc3n(Cc3ccccc3)c2c1=O)NC1CCCC1,nt,1.1,-7,nt,nt,
CC(=O)c1ccc(NC(=O)CSC2=NS(=O)(=O)c3cc(Cl)ccc3N2)cc1,nt,-0.5,-12,nt,nt,
CCOc1ccc(OCCCN(C)C)cc1,-2%,-2.8,-1,2,-14,
CC(C)=CCN1CCN(Cc2coc3ccc(C)cc3c2=O)CC1CCO (centres undefined),nt,0.2,4,nt,nt,
COc1ccc(NC(=O)CC2C(=O)NC3CCCCC3N2C(=O)c2ccc(F)cc2)cc1 (centres undefined),nt,0.3,0,nt,nt,
CCCCOc1ccc(CSC(=N)N)cc1[N+](=O)[O-],6%,9.0,11,-12,-12,
O=C1c2ccccc2C(Nc2ccc3c(c2)OCCO3)N1c1ccccn1 (centres undefined),28%,0.6,?,13,-10,Arbovirus inh repeat=3
Cc1cccc(N2C(=O)CCC2=O)c1,-2%,1.5,3,9,-15,
CCCn1c(-c2nonc2N)nc2ccccc21,5%,3.2,2,8,-29,
CCN(CC)C(=S)SCC(=O)Nc1nc(-c2ccccc2)c(-c2ccccc2)o1,?,10,91,-6,-24,

# Filtered by structure, the compounds so far containing four or more nitrogen atoms
SMILES,Mtb H37Rv,RecA splice inh,Mtb bLac sens,Arbovirus inh,YopH inh,others
CCOC(=O)c1[nH]c(C)c(/C(O)=C2\C(=O)C(=O)N(CCCn3ccnc3)C2c2ccncc2)c1C (centres undefined),2%,-9.9,4,-4,-66,
CCCCC(=O)Nc1cccc(-c2ccc3nncn3n2)c1,nt,3.2,-2,nt,nt,
O=C(c1cnc2sccn2c1=O)N1CCN(c2ccccc2Cl)CC1,nt,-1.5,-1,nt,nt,
O=C(CSc1nncc(=O)[nH]1)NC1CCCCC1,nt,-2.5,-2,nt,nt,
COc1cc(N(C)C)c([N+](=O)[O-])cc1C(=O)N1CCN(Cc2ccccc2)CC1,3%,-0.8,-12,4,nt,
Cc1c(NC(=O)C(C)OC(=O)c2cccnc2)c(=O)n(-c2ccccc2)n1C (centres undefined),3%,-2.0,0,2,-28,
Cc1nc2ccccn2c1/C(O)=C1\C(=O)C(=O)N(CCCn2ccnc2)C1c1ccncc1 (centres undefined),-1%,-0.1,-8,7,-8,
C#CCNc1cc(-c2ccccc2)nc2ncnn12,3%,-2.1,9,-10,nt,
CC(C)(C)n1nnnc1C(c1cccs1)N1CCCc2ccccc21 (centres undefined),-7%,6.9,-19,-3,-7,
CSCC[C@H](NC(=O)OC(C)(C)C)C(=O)N/N=C/c1cc2ccc(C)cc2nc1Cl,18%,5.5,41,-7,-19,
Cn1c(=O)n(C)c2cc(/C=N/NC(=O)c3ccc(Cl)cc3Cl)ccc21,-12%,1.4,-12,-13,-17,
Cc1cc(C)nc(NS(=O)(=O)c2ccc(NC(=O)c3cc4c(=O)n5cccc(C)c5nc4n3C)cc2)n1,nt,-7.5,3,nt,nt,
O=C(COc1ncnc2sccc12)Nc1cccc(S(=O)(=O)N2CCCC2)c1,-3%,2.3,-4,nt,nt,
CCNC(=S)Nn1cnc2ccccc21,2%,-19,-2,nt,nt,
Nc1nonc1-n1nnc(C(=O)N/N=C/c2ccncc2)c1CSc1ccc(Cl)cc1,nt,-1.5,1,nt,nt,
COc1ccc(O)c(/C=N/Nc2nc(C)cc(-c3ccccc3)n2)c1,nt,1.5,99,nt,nt,
O=C(NCc1cnn(-c2ccccc2)c1)C1CCC(=O)N(C2CC2)C1 (centres undefined),nt,-1.1,-9,nt,nt,
O=C(Cn1ncc2c3ccccc3n(Cc3ccccc3)c2c1=O)NC1CCCC1,nt,1.1,-7,nt,nt,
CCCn1c(-c2nonc2N)nc2ccccc21,5%,3.2,2,8,-29,
